# High-throughput results as filed in PubChem.
# NPYLR7 agonist: mosquito NPYLR7 agonism; HEK293T NPYLR7/Galpha15, GCaMP6s calcium fluorescence; 270,000 tested, 0.15% active; activation, % at 10 µM; in the data active = activation above about 40%;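 note: 0% = vehicle and 100% = reference agonist at the receptor; some compounds past the cut are filed as inactive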
# NPYLR7 agonist max-min: further read-out of NPYLR7 agonist, marked with its call; activation, %; measured here: Max-Min RFU normalised activation; some inactives read as strong as hits;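 span of the calcium signal over five minutes; 0% = vehicle and 100% = native peptide agonist; compound fluorescence can raise it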
# * hit, by the source's call; & = joins results of further samples. These rows are one share of the data; the hit share may differ from the screen's.
# Second line of a record – NPYLR7 agonist	NPYLR7 agonist max-min
- CC(c1ccon1)N(C)C(=O)C1(Oc2ccc(Cl)cc2)CCNCC1 (stereo not given)
→ -1	-4
- Cc1nc2cc(C(=O)NCCS(=O)(=O)N(C)C)ccc2s1
→ 2	1
- O=[N+]([O-])c1ccc2[nH]c(=S)oc2c1
→ 6	5
- CCc1cc(C(=O)Nc2ccccc2C(=O)N(C)c2ccccc2)on1
→ 0	-3
- Cc1nc(CN(C)Cc2cnc(-c3cccc4ccccc34)nc2)no1
→ 3	-7
- CCCc1cc(=O)n2[nH]c(C)c(-c3ccc(F)cc3)c2n1
→ -19	-26
- c1ccc2c(NC3CCCC3)nnc(NC3CCCC3)c2c1
→ 0	0
- COc1cc(-c2n[nH]c(=S)o2)cc(OC)c1OC
→ 5	5
- O=C1N(Cc2ccc(F)c(F)c2)CCCC1(O)CNCCc1cn[nH]c1 (stereo not given)
→ 1	-1
- C=CCN(C(=O)c1cc(C)nc2cc(C)ccc12)C1CCS(=O)(=O)C1 (stereo not given)
→ -7	-16
- CCC(CC)CC(=O)N(C)[C@@H]1CS(=O)(=O)C[C@H]1O
→ 7	6
- c1ccc(CN(Cc2cnc[nH]2)CC2CCCO2)nc1 (stereo not given)
→ 5	-3
- Cc1ccc2nc(/C=C/c3cnc(N4CCCC4)nc3)cc(C(=O)O)c2c1
→ 20	19
- Cc1ccc(N2CCN(C(=O)c3cc4n(n3)CCCN(C)C4)CC2)c(C)c1
→ 26	22
- O=C(O)c1ccc(-n2nccc2-c2ccc(F)cc2)cc1
→ 1	-1
- COc1cccc(C(C[N+](=O)[O-])n2nc(C)cc2C)c1 (stereo not given)
→ 5	-1
- COc1ccccc1C(C)NC(=O)C1Cc2ccccc2O1 (stereo not given)
→ -3	-2
- Cc1cc(C)n(-c2ccc(C(=O)N3C[C@H]4C[C@H](O)[C@H](O)C[C@H]4C3)cc2)n1
→ 6	3
- CC12CCC(c3cn(-c4ccccn4)nc31)C2(C)C (stereo not given)
→ 13	9
- COc1cc(NC(=O)c2cc3nc(-c4ccco4)cc(C(F)(F)F)n3n2)c(OC)cc1Cl
→ -1	-9

# Ordered by count of non-hydrogen atoms (low to high): part of the list above.
# Second line of a record – NPYLR7 agonist	NPYLR7 agonist max-min
- CCC(CC)CC(=O)N(C)[C@@H]1CS(=O)(=O)C[C@H]1O
→ 7	6
- CC12CCC(c3cn(-c4ccccn4)nc31)C2(C)C (stereo not given)
→ 13	9
- COc1ccccc1C(C)NC(=O)C1Cc2ccccc2O1 (stereo not given)
→ -3	-2
- Cc1ccc(N2CCN(C(=O)c3cc4n(n3)CCCN(C)C4)CC2)c(C)c1
→ 26	22
- COc1cc(NC(=O)c2cc3nc(-c4ccco4)cc(C(F)(F)F)n3n2)c(OC)cc1Cl
→ -1	-9

# Other records:
# Second line of a record – NPYLR7 agonist	NPYLR7 agonist max-min
- CCCc1[nH]n(C)c(=O)c1C1=C(N(C)Cc2ccccc2)C(=O)N(CCOC)C1=O
→ -4	7
- CC(C)C[C@H](NC(=O)Nc1ccn(C)n1)C(=O)OC(C)C
→ 10	8
- NC(=O)Nc1cccc(C(=O)N2CCc3sccc3C2c2cccs2)c1 (stereo not given)
→ 2	1
- c1nc(NCC23CC4CC(CC(C4)C2)C3)c2c3c(sc2n1)CCC3
→ 3	3
- COCC(=O)Nc1nn(Cc2ccc(COc3ccc4c(c3)OCO4)cc2)c2ccc(C(F)(F)F)cc12
→ -3	9
- CC(C(=O)NC1CCCC1)S(=O)Cc1ccccc1Cl (stereo not given)
→ 5	2
- CC1CCCCC1n1c(SCc2ccc(C#N)cc2)nnc1-c1cccnc1 (stereo not given)
→ 11	9
- C=CCS(=O)(=O)N1CCC2(CCCN(CCCc3ccccc3)C2=O)C1 (stereo not given)
→ 12	3
- CC(C)c1ccc(CN(C(=O)Nc2cccnc2)C2CC2)cc1
→ 1	-1
- COc1cccc(Nc2ncc3c(n2)CCN(Cc2ccc(O)cc2)C3)c1
→ 1	-2
- Cc1nn(CC(O)COCc2ccccc2)c(=O)c(C#N)c1C (stereo not given)
→ 0	-1
- Cn1c(=O)n(CCc2ccccc2)c(=O)c2c1nc1n2CCCN1Cc1ccccc1
→ 2	0
- CN(C)S(=O)(=O)NCC1CN(c2ccc3c(c2)OCO3)C(=O)O1 (stereo not given)
→ 4	12
- CCc1noc(CN(CC)C(=O)c2cc(-c3cccn3C)n[nH]2)n1
→ 1	0
- Cc1ccc(-n2nnc(C(=O)NCCCN3CCCC3C(=O)N(C)C)c2C)cc1 (stereo not given)
→ -8	-8
- COc1cc(OC)c(NC(=O)c2ccc3[nH]ccc3c2)cc1F
→ 0	0
- Cc1ccc(NC(=O)NCCO)c(-c2nc(C3CC3)no2)c1
→ -12	-15
- CC(C)(C)NC(=O)NC1CCN(c2ccccc2C(=O)NC2CC2)CC1
→ -3	3
- Cc1cccc(C)c1-n1nnnc1COC(=O)C1(O)CCCC1
→ 1	7
- O=C1[C@H](CC[C@H](O)c2ccc(F)cc2)[C@@H](c2ccc(O)cc2)N1c1ccc(F)cc1
→ -11	-14
- CCOC(=O)C1CCCCN1CC(=O)N1N=C(c2ccccc2Cl)CC1c1ccccc1C (stereo not given)
→ 1	-1
- COc1cc2c(cc1OC)C(C(C)N)N(Cc1cccc(C)c1)CC2 (stereo not given)
→ 6	5
- CCC(C(=O)Nc1c2c(nn1C(C)(C)C)CSC2)c1ccccc1 (stereo not given)
→ -1	-3
- O=C(COc1ccccc1)NC1CCN(c2ccccc2C(=O)NCCc2cccs2)CC1
→ -1	1
- CCOc1ccc(C(=O)N(CN2CCCC2=O)c2cc(C)on2)cc1
→ 5	2
- CC(=O)Nc1ccc(CN2CCC2(C)C(=O)NC2CCN(C)CC2)cc1 (stereo not given)
→ 1	-4
- COc1ccccc1CN1CCCC(CN(CCN(C)C)C(=O)c2cccnc2)C1 (stereo not given)
→ 5	2
- COc1ccccc1CC(=O)N1CCOC(COCc2c(Cl)cccc2Cl)C1 (stereo not given)
→ -6	-8
- CCOC(=O)c1[nH]c2c([N+](=O)[O-])cc(C)cc2c1CCN1C(=O)c2ccccc2C1=O
→ 4	4
- COc1ccc(-n2c(C)c(C)n3c4c(=O)n(CC(C)=O)c(=O)n(C)c4nc23)c(OC)c1
→ 17	4
- Cc1ccc(/C=N\NC(=O)CNC(=O)c2ccc(C)c([N+](=O)[O-])c2)o1
→ 12	7
- CCCc1nnc(NC(=O)CN2CCCC2c2c(C)noc2C)s1 (stereo not given)
→ 9	7
- O=C(C1CC2CCC1C2)N1CCN(S(=O)(=O)c2cccc(F)c2)CC1 (stereo not given)
→ 9&2	16&2
- CCN1C(=O)N(Cc2cccc(OC)c2)C(=O)C12CCN(Cc1cn[nH]c1-c1ccc(F)cc1)CC2
→ 13	-3
- O=C(c1ccccc1-n1cccc1)N1CCC(c2ccc(F)cc2)CC1
→ -15	-19
- O=C(NCC1CCOC1)Nc1cccc(-c2cccs2)c1 (stereo not given)
→ 4	0
- CN1C(=O)NC(C)(C2CCCN(Cc3ccn(C)c(=O)c3)C2)C1=O (stereo not given)
→ 5	7
- CN1CCN(S(=O)(=O)N2CCN(C(=O)NCc3ccc(F)c(F)c3)CC2)CC1
→ 6	2
- OC(Cc1ccccc1)c1ccc2c(c1)CN(Cc1ccc3c(c1)OCCO3)CCO2 (stereo not given)
→ -1	-6
- Fc1ccc(N2CCCN(CC3CCOC3)CC2)cc1 (stereo not given)
→ 4	4

# Of the compounds above, these have a CF3 group.
# Second line of a record – NPYLR7 agonist	NPYLR7 agonist max-min
- COc1cc(NC(=O)c2cc3nc(-c4ccco4)cc(C(F)(F)F)n3n2)c(OC)cc1Cl
→ -1	-9
- COCC(=O)Nc1nn(Cc2ccc(COc3ccc4c(c3)OCO4)cc2)c2ccc(C(F)(F)F)cc12
→ -3	9

# Looked up above.
# Entry of O=C(c1ccccc1-n1cccc1)N1CCC(c2ccc(F)cc2)CC1 under NPYLR7 agonist max-min: -19
# Entry of CCCc1nnc(NC(=O)CN2CCCC2c2c(C)noc2C)s1 (stereo not given) under NPYLR7 agonist: 9

# Later entries:
# Second line of a record – NPYLR7 agonist	NPYLR7 agonist max-min
- CCOC(=O)C1CCN(C(=O)CN(C2CCCCC2)S(C)(=O)=O)CC1
→ 3	2
- COc1cc(C#N)ccc1OCC(O)COc1ccc(C#N)cc1 (stereo not given)
→ 5	3
- COc1ccc(-c2csc(NC(=O)CN3CC(C)CC(C)C3)n2)c(OC)c1 (stereo not given)
→ 10	9
- CCO[C@H]1COC[C@@H]1NC(=O)c1cc2ccccc2s1
→ -5	-6
- N#CC1(NCCNC2(C#N)CCCCC2)CCCCC1
→ 4	12
- CC(NC(=O)c1cccc(OCc2cscn2)c1)c1ccc(Cl)cc1 (stereo not given)
→ 1	-2
- O=C1c2nc(-c3cccnc3)ccc2CN1C1(C(=O)NCCN2CCOCC2)CC1
→ 7	8
- CC1NC(=S)N(CC2(N3CCOCC3)CCCCC2)C1=O (stereo not given)
→ -2	-1
- C=CCn1c(SCc2ccc(C(=O)N3CCOCC3)cc2)nnc1-c1cccc(OC)c1
→ 15	16
- CCCCn1c(N)c(N(C)C(=O)c2ccc(Br)cc2)c(=O)[nH]c1=O
→ 12	6
- CC(C)(C)c1cc(NC(=O)CCCOc2ccccc2)n(-c2ccccc2)n1
→ 2	-2
- Cc1ccc2[nH]c(C(=O)O)c(CN3CCN4CCN(C)C(=O)C4C3)c2c1 (stereo not given)
→ -2&-1	-2&1
- Cc1ccc(C(=O)N2CCN(CCCOC(c3ccc(Cl)cc3)c3ccc(Cl)cc3)CC2)cc1C
→ 0	-7
- COc1ccc(CC(=O)N2CCC(C(=O)NCCNC(=O)c3ccccc3)CC2)cc1
→ 18	30
- Cc1noc(C)c1S(=O)(=O)N1CCCC(C(=O)c2ccc3ccccc3c2)C1 (stereo not given)
→ 0	-1
- CN1CCC(CNC(=O)c2cc(COc3cccc(C(F)(F)F)c3)[nH]n2)C1 (stereo not given)
→ 0	34
- CC(C)Sc1nc(N2CCCC2)c2cnn(CCNC(=O)Cc3ccc(F)cc3)c2n1
→ 4	3
- Cc1csc(=O)n1CCCC(=O)Nc1nc2c(F)cc(F)cc2s1
→ 1	-1
- Cc1nc(S(=O)(=O)N2C[C@@H]3[C@H](C2)[C@H]2CC[C@@H]3O2)cn1C
→ 21	10
- Cc1cc(NCC2CCCO2)n2nc(C)c(-c3ccc(Cl)cc3)c2n1 (stereo not given)
→ -6	-7
- O=C(O)c1ccc(F)c(S(=O)(=O)Cc2ncon2)c1
→ 3	4
- N#Cc1cn(-c2ccccc2)nc1N=CC(C#N)C#N
→ 2	-1
- Cc1csc(NC(=O)Cc2cc(-c3ccc(Cl)cc3)on2)n1
→ 1	2
- Cc1cc(C)c2sc(N(CCN(C)C)C(=O)c3cccc(S(C)(=O)=O)c3)nc2c1
→ -2	-6
- CCC(O)CNc1cccc(-n2nc(OCC(C)C)nc2-c2cccc(F)c2)c1 (stereo not given)
→ 17	16
- O=C(c1ccccc1F)N(CCN1CCOCC1)Cc1c(-c2ccccc2)noc1N1CCCCC1
→ 0	2
- CCOc1ccc(CN(Cc2ccc3c(c2)OCO3)Cc2nc(C(=O)NC(C)c3ccccc3)co2)cc1 (stereo not given)
→ 21	26
- CC1(C(=O)NS(=O)(=O)Cc2ccccc2)CCN1C(=O)Cc1ccc(-c2ccccc2)cc1 (stereo not given)
→ -1	-4
- CCOCCOc1nc(-c2ccccc2C)n(-c2ccc(NC(=O)c3ccc4c(c3)OCO4)cc2)n1
→ 17	23
- CCN(CC)S(=O)(=O)c1ccc(NC(=O)CNc2cc(C)cc(C)c2)cc1
→ 4	2
- CCC(=O)Nc1ccc(Nc2cc(OC)nc(C)n2)cc1
→ 6	1
- CCC1=NOC(Cn2cnc(-c3ccccc3)c2-c2c(C)nn(C)c2Cl)C1 (stereo not given)
→ 5	4
- CCCCN(CC(=O)Nc1c(-c2ccccc2)c(C)nn1-c1ccc(C)cc1)C(=O)c1ccco1
→ 7	17
- CCOc1ccc(-c2ccc(C(=O)N3CC=C(c4ccccc4)CC3)s2)cc1
→ -3	12
- O=C1CC(N2CCC(c3nc4ccccc4s3)CC2)C(=O)N1c1ccc(F)cc1 (stereo not given)
→ 8	7
- CC1CC(Sc2nnc(-c3cccs3)n2C2CC2)C(=O)O1 (stereo not given)
→ 3	5
- CN(C)CCNC(=O)c1ccccc1N1CCC(NC(=O)c2cccs2)CC1
→ 25	21
- NC(=O)c1ccsc1NC(=O)c1ccno1
→ -5	-13
- CC#CCN1C(=O)C(CCC(=O)N2CCN(C)CC2)NC(=O)c2ccccc21 (stereo not given)
→ 0	17
- COCCN(Cc1ccc(C)cc1)Cc1cccc(O)c1
→ 4	3
- NC(=O)c1cc(CCOC(=O)C(c2ccccc2)n2cccn2)c(C(F)(F)F)[nH]c1=O (stereo not given)
→ 0	3
- Cn1c(=O)c2c(ncn2CC(=O)NC(C)(C)C)n(C)c1=O
→ 8	15
- COc1cc(C(=O)Oc2cc(C)[nH]c(=O)c2[N+](=O)[O-])cc(OC)c1OC
→ 5	3
- Cc1csc(C2CCCCN2C(C)C(=O)NC(C)c2ccccc2)n1 (stereo not given)
→ -1&-7	6&-9
- Cc1ccc(C)c(NC(=O)CC(=O)NCCc2c[nH]c3ccccc23)c1
→ 1	1
- O=c1[nH]c2ccc(S(=O)(=O)Nc3ccc(Cl)cc3Cl)cc2s1
→ 6	5
- Cc1nc2ccccc2c2nc(N)nn12
→ 6	4
- CCOCCCN(CC(=O)c1c(C)c(C(=O)OCC)n(CC)c1C)C(=O)Nc1c(C)cccc1C
→ -6	6
